Tg IFNy HTS – inhibitors of Toxoplasma gondii growth with IFN-gamma; activity change, negative = inhibition, %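 (about 20 µM by stock and volumes)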; 3.8% of 69,000 active; Toxoplasma gondii growth in IFN-gamma-treated host cells; hits give low values; reference of the scale not given here; AID 1259416;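 active = below -70%; inconclusive = fit judged invalid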;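 note: host cells are HeLa cells infected with Toxoplasma gondii; parasite growth read as luciferase light; one replicate is shown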
Active calls of the source: *; i = inactive; ? = inconclusive; & = joins results of further samples.

SMILES | Tg IFNy HTS
COc1cccc(S(=O)(=O)Nc2ccc3c(c2)C(=O)N(C)C[C@H](OC)[C@H](C)CN(Cc2ccccc2F)[C@@H](C)CO3)c1 | -45&-64
O=C(Nc1c(C(=O)NCc2ccccn2)[nH]c2ccccc12)c1ccc(Cl)cc1 | -2
COCCN1C(=O)CCc2cc(NS(=O)(=O)c3ccc(C(F)(F)F)cc3)ccc21 | 1
O=C(C[C@H]1CC[C@H]2[C@@H](COC[C@@H](O)CN2CC2CCOCC2)O1)NCC1CCCCC1 | 1
O=C(C[C@@H]1CC[C@H]2[C@@H](COC[C@@H](O)CN2CCC(F)(F)F)O1)NCC1CC1 | 29
Cc1ccc2cc(C3(O)CCN(C(=O)CCn4cnnc4)CC3)ccc2n1 | 11
O=C(c1ccc2c(c1)OCO2)N1C[C@H]2[C@@H](c3ccccc31)[C@H](CO)N2Cc1cccnc1 | 6
CC(=O)N(CCC(Cc1ccccc1)c1ccco1)Cc1ccco1 (stereo not given) | 20
CCCCOC(=O)c1cc2c(cn1)[nH]c1ccccc12 | 138
CO[C@@H]1CCN(C(=O)c2cnc(C)cn2)[C@H]2CN(Cc3ccco3)C[C@@H]12 | 6
CC(c1nccs1)N(C)C(=O)c1ccccc1N1CCOCC1 (stereo not given) | 11
Cc1cc(C(=O)Nc2cc(-c3ccccc3)nn2C)no1 | 3
COCCN1CC(C(=O)N(C)Cc2csc(C)n2)CC1=O (stereo not given) | 10
CC(C)NC(=O)c1ccc(C(C)C)cc1 | 23
Cc1cccc(CN(C)Cc2cc(-c3ccccc3)no2)n1 | 21
O=C(O)C1CC2(CCNCC2)CN1C(=O)c1cccc(Oc2ccccc2)c1 (stereo not given) | 11
COc1ccc(S(=O)(=O)NCc2nc(-c3ccc(C)cc3)oc2C)cc1Cl | 66
C=CCOCC1CN(Cc2csc(C)n2)Cc2ccnn2C1 (stereo not given) | 15
Cc1cc(C)n(Cc2nc(-c3ccc(NC(=O)Cc4cccc(F)c4)cc3)oc2C)n1 | -38
CCOC(=O)N1CCC(NCC(=O)NCc2ccccc2F)CC1 | 5
Cc1cc(C)n(Cc2nc(-c3ccc(NC(=O)c4ccc(C)s4)cc3)oc2C)n1 | 59
CCOC(=O)c1[nH]ncc1CN1CCn2cncc2C1 | -2
CN1CCCC2(CCN(C(=O)CCc3nc4ccccc4s3)C2)C1=O (stereo not given) | 2
O=C(Nc1ccc(Br)cc1F)N1CCC2(CC1)Nc1ccccc1-n1cccc12 | i
COCCNC(=O)C[C@@H]1CC[C@H]2[C@@H](COC[C@@H](O)CN2S(=O)(=O)c2ccccc2F)O1 | 1

By substructure, those above containing an aryl methoxy group
SMILES | Tg IFNy HTS
COc1cccc(S(=O)(=O)Nc2ccc3c(c2)C(=O)N(C)C[C@H](OC)[C@H](C)CN(Cc2ccccc2F)[C@@H](C)CO3)c1 | -45&-64
COc1ccc(S(=O)(=O)NCc2nc(-c3ccc(C)cc3)oc2C)cc1Cl | 66

The results go on:
SMILES | Tg IFNy HTS
CC(C)NC(=O)N1[C@@H]2CNc3ccccc3[C@@H]2[C@@H]1CO | -2
O=C(CN1CCOCC1)N[C@@H]1CC[C@H](CCn2cc(C3CC3)nn2)O[C@@H]1CO | -17
COc1ccc(Cc2nn3c(=O)c(C)nnc3s2)cc1 | -17
CCN1C(=O)CCc2cc(NC(=O)c3ccc(C)s3)ccc21 | -57
CN1CC2(CCN(C(=O)C3=Cc4ccccc4OC=C3)C2)OC1=O (stereo not given) | -25
COc1c(F)cccc1C(=O)N1C[C@H]2OC(=O)N(Cc3ccccn3)[C@H]2C1 | -4
CN1C(=O)CCCC12CCCN(C(=O)c1ccc3ncccc3c1)C2 (stereo not given) | 2
COc1ccc(-c2nc(C)c(CCNC(=O)C(C)(C)C)s2)cc1 | i
C[C@@H]1O[C@@H](O[C@@H]2[C@H](Oc3cc(O)c(C(=O)CCc4ccc(O)cc4)c(O)c3)O[C@H](CO)[C@@H](O)[C@@H]2O)[C@H](O)[C@H](O)[C@H]1O | 4
Cc1ccc(NC(=O)CSc2nnc(-c3ccncc3)n2-c2ccccc2)cc1 | -59
CCC(=O)N1CCC2(CC1)CC(N(C)Cc1ccccc1)CO2 (stereo not given) | -8
Fc1cccc(Cl)c1Cn1c(C2CCCO2)nc2ccccc21 (stereo not given) | 45
COc1cccc(-c2ccc3n(c2=O)C[C@@H]2[C@@H](CO)[C@H](C(=O)N(C)C)[C@H]3N2C(=O)c2ccccn2)c1 | -10
CCOc1ccc(N2CSC(=S)N(c3ccc(OCC)cc3)C2)cc1 | -60
Cc1ccc(S(=O)(=O)Nc2ccccc2-c2nc3ccccc3c(=O)o2)cc1 | -45
COc1ccc(NC(=O)c2c(O)c3cccnc3n(-c3ccccc3)c2=O)cc1F | 111
Cc1ccc2[nH]c(CCC(=O)N3CCOC(C(F)(F)F)C3)nc2c1C (stereo not given) | -5
Cc1ccc(F)c(S(=O)(=O)N2CCCCC2c2nc(C)c3c(n2)N(C)C(=O)CC3)c1 (stereo not given) | 7
O=S(=O)(c1ccccc1)N1CC2(C1)[C@H](c1ccccc1)[C@@H](CO)N2CC1CCOCC1 | -27
O=S(=O)(Cc1ccccc1)c1nc2ccccc2n1Cc1ccccn1 | 22
Cc1cc(N2CCOCC2)c2c(N)c(C)cc(C)c2n1 | 3
Cc1ccc(C2(O)CCN(C(=O)CCC(=O)N3CCCCCC3)CC2)nc1 | -2
CO[C@H]1CN(C)C(=O)c2cc(NC(=O)c3cccc(F)c3)ccc2OC[C@@H](C)N(C)C[C@@H]1C | -39
Cc1nc(C2CC2)ncc1C(=O)N(C)Cc1ccc2nsnc2c1 | -6
CC1(C)C[C@@H]2C[C@@](C)(CN2c2ccnc(C(=O)NCc3cccnc3)c2)C1 | -4
Further compounds
SMILES | Tg IFNy HTS
CCNC[C@@H]1[C@@H](c2ccccc2)[C@@H](CO)N1C(=O)Cc1ccccn1 | 7
Cc1c(C(=O)NCCc2ccc(N(C)C)cc2)cnn1C | -5
CCOc1ccc(N(Cc2nc(-c3ccccc3OC)oc2C)S(=O)(=O)c2ccccc2)cc1 | -51
Cc1ncc2c(c1-c1noc(C(C)Oc3cccc(Cl)c3)n1)CCNC2 (stereo not given) | -17
CCOc1cc2c(cc1OCC)C(c1ccccc1)N(c1ccc(C(=O)O)cc1)C(=O)C2 (stereo not given) | -16
COc1cc2c(cc1OC)-c1nnc(C)n1C(C)(C)C2 | 2
CCC1=N[C@@]2(CC[C@@H]3CN(C(=O)NCC4CCCCC4)C[C@H]32)C(=O)N1 | -2
C/C=C/c1ccc([C@@H]2[C@@H](CO)N(Cc3cccc(F)c3)C23CN(C(C)=O)C3)cc1 | 21
C[C@H](CO)N1C[C@H](C)[C@@H](CN(C)S(=O)(=O)c2cn(C)cn2)OCCCC[C@H](C)Oc2ccc(N(C)C)cc2C1=O | 18
COC(=O)CC(=O)c1cnc2sccn2c1=O | -20
CN(Cc1cncnc1)Cc1cnc2n1CCN(C(N)=O)CC2 | 57
COc1cccc(CC2CN(c3cc(C(N)=O)ccn3)CCO2)c1 (stereo not given) | 3
S=C(Nc1ccc(N2CCOCC2)nc1)Nc1cc(Cl)ccc1Cl | 62
CCC(=O)N(Cc1c(C)nn(-c2ccccc2)c1Cl)c1ccc(Cl)cc1 | 0
Cc1ccoc1C(=O)N1CCOC2CCC1C2Oc1ncccc1F (stereo not given) | 7
NC(=O)C1(Cc2ccc(-c3cccs3)cc2)CN(C(=O)c2ccccc2)CCO1 (stereo not given) | -9
CC(=O)c1cccc(NC(=O)c2cccc(CN(C)C3CCOCC3)c2)c1 | -1
CCCCc1ncc(C2CC(=O)Nc3c2cnn3CCC(C)C)[nH]1 (stereo not given) | 8
COc1cccc(-c2nc3c(s2)CN(S(=O)(=O)c2cc(C)cc(C)c2)CC3)c1 | -85*
CCCN(c1ccc(F)cc1)c1nc(C(=O)OCC)nc2ccccc12 | -49
COC(=O)c1c(O)c2c([nH]c1=O)CCCC2 | -1
Cn1nc(C(F)(F)F)c2cc(-c3nc(-c4ccc(C(F)(F)F)cc4)no3)sc21 | 27
Cc1ccccc1-c1noc(CCC(=O)N(C)CC(C)N2CCOCC2)n1 (stereo not given) | 8
CCC1CCCCN1C(=O)CCNc1c(-c2cccc(F)c2)nc2cnccn12 (stereo not given) | 281
CC(C)c1nc2ccc(NC(=O)CCn3cnnn3)cc2s1 | 3

An excerpt from above in order of heavy-atom count, smallest number first:
SMILES | Tg IFNy HTS
CN(Cc1cncnc1)Cc1cnc2n1CCN(C(N)=O)CC2 | 57
CCC(=O)N(Cc1c(C)nn(-c2ccccc2)c1Cl)c1ccc(Cl)cc1 | 0
Cc1ccccc1-c1noc(CCC(=O)N(C)CC(C)N2CCOCC2)n1 (stereo not given) | 8

Part of the list above, as comma-separated lines.
canonical_smiles,Tg IFNy HTS
O=C(O)C1CC2(CCNCC2)CN1C(=O)c1cccc(Oc2ccccc2)c1 (stereo not given),11
COc1ccc(S(=O)(=O)NCc2nc(-c3ccc(C)cc3)oc2C)cc1Cl,66

Back to the main list, starting 5 compounds before the break.
SMILES | Tg IFNy HTS
COC(=O)c1c(O)c2c([nH]c1=O)CCCC2 | -1
Cn1nc(C(F)(F)F)c2cc(-c3nc(-c4ccc(C(F)(F)F)cc4)no3)sc21 | 27
Cc1ccccc1-c1noc(CCC(=O)N(C)CC(C)N2CCOCC2)n1 (stereo not given) | 8
CCC1CCCCN1C(=O)CCNc1c(-c2cccc(F)c2)nc2cnccn12 (stereo not given) | 281
CC(C)c1nc2ccc(NC(=O)CCn3cnnn3)cc2s1 | 3
O=C1CC(C(=O)NCCN2Cc3ccccc3OC(c3ccsc3)C2)c2ccccc21 (stereo not given) | -1
CC(=O)Nc1ccc(NC(=O)Cn2c(=O)cc(C(=O)N3CCCCC3)c3ccccc32)cc1 | 8
C=CCNC(=O)CSc1ncc2c(n1)CC(C)(C)CC2=O | 51
Cn1cc(C2CC(=O)NC23CCN(C(=O)c2cscn2)CC3)cn1 (stereo not given) | 162
Cc1oc(/C=N/NC(=O)CC2(C)OCCO2)cc1Br | 3
Cc1noc(C)c1S(=O)(=O)N1CCCC(O)(CN(C)C)CC1 (stereo not given) | 3
CC1c2ccsc2CCN1Cc1ccccc1-n1cccn1 (stereo not given) | -15
CCCCC(=O)Nc1ccc(NC(=O)CN2CCCC2)cc1 | 3
C=CCc1ccc(O)c(-c2ccc(O)c(CC=C)c2)c1 | -64
Cc1cc(C(O)CN2CCN(S(=O)(=O)N3CCC(C)CC3)CC2)c(C)s1 (stereo not given) | 19
O=C(CSc1nc2ccc(N3C(=O)c4ccccc4C3=O)cc2s1)N1CCOCC1 | 1
COc1ccc(NS(=O)(=O)c2ccc(NC(=O)c3cc4ccccc4o3)cc2)cc1 | -71*
Cc1nc(C(C)C)sc1C(=O)N1CC[C@@H](c2ccc3c(c2)OCO3)[C@H](O)C1 | -4
Clc1ccc(CSc2nc(NCc3ccccc3)c3ccccc3n2)cc1 | -72*
O=C(c1cnc(Nc2ccccc2)nc1)N1CC(c2ccncc2)C1 | -59
Cc1cc(N2CCN(c3nc(C)cc(C)n3)CC2)ncn1 | 3
COc1cccc(CN2CCN(c3cccc(C(C)C)n3)CC2)c1F | -14
CCC(=O)NC[C@@H]1[C@@H](c2ccc(-c3cccc(F)c3)cc2)[C@@H](CO)N1CC1CC1 | -14
O=C(/C=C/c1ccc(CN(CCO)CCc2c[nH]c3ccccc23)cc1)NO | -86*
C[C@H]1CN([C@@H](C)CO)C(=O)c2c(c3ccccc3n2C)-c2ccccc2CO[C@@H]1CN(C)C(=O)NC1CCCCC1 | 35
CC(C)Cc1cc(C(=O)N2CCC(Oc3ncccn3)CC2)n[nH]1 | -3
Fc1cc(F)cc(NC(=S)NCCCN2CCOCC2)c1 | 28
CC(=O)Nc1ccc(-c2cn(CC3CC(=O)N(C4CCCC4)C3)nn2)cc1 (stereo not given) | 1
COc1cccc(CN2CCCCN3[C@@H](CO)[C@@H](c4ccc(-c5ccccc5OC)cc4)[C@@H]3C2)c1 | ?
CCS(=O)(=O)N1CC2(CN(Cc3cc(F)ccc3F)[C@@H](CO)c3c2c2ccc(OC)cc2n3C)C1 | -44
More records follow:
SMILES | Tg IFNy HTS
COc1ccc(-c2nc(NCCN3CCN(c4ccc(OC)cc4)CC3)c3ccccc3n2)cc1 | -27
CCOc1ccccc1CNc1nc(-c2ccc(OC)cc2)nc2ccccc12 | -30
O=C(C[C@H]1CC[C@H]2[C@@H](COC[C@H](O)CN2C(=O)c2cnccn2)O1)NCc1ccc(Cl)cc1 | 5
COc1cccc(-c2cccc(CN(C)Cc3cc(C)[nH]n3)c2)c1 | -82*
CN1C(=O)CCC12CCC(NC(=O)Cc1ccccc1)CC2 (stereo not given) | 1
Cc1noc(C)c1NC(=O)N(C)C[C@@H]1OCc2ccccc2-c2c(n(C)c3ccccc23)C(=O)N([C@H](C)CO)C[C@@H]1C | 47
O=C(Nc1ccc(OCc2ccccc2)cc1)OCC1CN(Cc2ccccc2)CCO1 (stereo not given) | -89*
O=C(Nc1ccc(Cl)cc1)OCc1cccc(COC(=O)Nc2ccc(Cl)cc2)n1 | -98*
COc1ccc(N2CCN(C(=O)CN3C(=O)CCc4cc(Br)ccc43)CC2)cc1 | 203
O=S(=O)(c1ccccc1F)N1CC[C@@H]2[C@@H](CO)Nc3ccc(C4=CCCCC4)cc3[C@@H]21 | -67
Cc1ccc(C(=O)N2CCC3(CC2)Nc2ccc(C)c(C)c2-n2cccc23)cc1F | -6
CC(C)Oc1ccc(NC(=O)c2nc3c(n2C(C)C)CCN(C(=O)c2ccccc2)C3)cc1 | -89*
CC(C)OCCCN(C)C1CCN(S(=O)(=O)c2ccc3[nH]c(=O)ccc3c2)CC1 | i
Cc1[nH]nc(CCC(=O)N2CCCC(c3ccn[nH]3)C2)c1C (stereo not given) | -37
COc1ccc(OC)c(CN(C(=O)CC2=CCNCC2)C2CCCC2)c1 | 10
C[C@H](NC(=O)C[C@H]1CC[C@H]2[C@@H](COc3ccc(NC(=O)C4CCOCC4)cc3C(=O)N2C)O1)c1ccccc1 | -9
COc1ccc2c(c1)NC1(CCN(S(=O)(=O)c3ccccc3F)CC1)c1cccn1-2 | -10
Cc1ccc(NC(=O)CC(=O)NCCS(=O)(=O)N2CCCC2)c(C)c1 | -15
CN(Cc1cccc(C(=O)Nc2ccnn2C)c1)Cc1cc(C2CC2)n[nH]1 | -3
CCc1ccc2oc(=O)cc(CN3CCN(Cc4nc(-c5ccccc5Cl)oc4C)CC3)c2c1 | 9

These rows are one share of the data. The share of hits here may be higher or lower than overall.
